Screening results from PubChem BioAssay.
Vaccinia mCherry: qHTS for Stage-Specific Inhibitors of Vaccinia Orthopoxvirus: mCherry Reporter Primary qHTS; AID 720579, 2013; Vaccinia virus mCherry reporter infection, fluorescence; about a quarter of the inactives have no number; Potency, µM (highest dose often 36.5 µM), without a hit: at the top dose activity change, negative = inhibition, hits mostly inhibitors; actives 0.63% (n = 310,000); active = well fitted inhibition curve with a large enough effect; inconclusive = small, poorly fitted or top-dose-only effect; inactive = no such curve, though single readings can be large or run the other way; tested in A549 cells; note: nearly all actives have a fitted effect of over 35% in size; inactives centre near -10
VACV Venus inh: qHTS for Stage-Specific Inhibitors of Vaccinia Orthopoxvirus: Venus Reporter Primary qHTS; Vaccinia virus Venus reporter expression, fluorescence; AID 720580, 2013; Potency, µM (titrated, usually from 36.5 µM), for the others: at the top dose activity change, negative = inhibition, actives largely listed as inhibitors; actives 0.46% (n = 330,000); active means well fitted inhibition curve with a large enough effect; inconclusive means small, poorly fitted or top-dose-only effect; inactive means no such curve, though single readings can be large or run the other way; tested in A549 cells; note: nearly all actives have a fitted effect of over 30% in size; inactives centre near -10
Starred values were filed as active, the others as inactive; i = inactive; u = inconclusive; x = not tested or not shown; & = joins results of further samples; [ ] = another dose, or the depositor's remark. % is set by controls: 0 for no effect and ±100 for the full control effect; potency is the fitted concentration of half-maximal effect.

The opening 17 compounds, ahead of the listing:
SMILES | Vaccinia mCherry | VACV Venus inh
CN1C(C(=O)NCCc2cccs2)CC2Cn3c(nc4cc(Cl)c(Cl)cc43)C21 (stereo not given) | -15% | -22%
COc1ccc(/C=N/NC(=O)c2cccc(COCC(F)(F)C(F)F)c2)cc1 | u | -29%
COc1ccc(CCn2cnc(=O)c(C#N)c2C)cc1OC | -2% | -11%
Cc1ccc(C)c(N2CCN(C(=O)CCc3nc(-c4cccc(Br)c4)no3)CC2)c1 | i | -1%
O=C(CSC1=NCCN1)Nc1cccc(C(F)(F)F)c1 | i | -19%
CCCN(CC(=O)Nc1ccccc1C)C(=O)C1CC(=O)N(Cc2ccccc2)C1 (stereo not given) | -15% | -14%
COc1ccc(Cc2n[nH]c(=S)n2N)cc1OC | i | -8%
O=C(NCCc1ccccc1)c1cnc2ccccn2c1=O | i | -9%
CCNc1nc(N)nc(Oc2ccc(OCC(=O)OC)nn2)n1 | 0% | -11%
Cc1nn(-c2nc(-c3ccc(F)cc3)cc(C(F)(F)F)n2)c(C)c1Cl | -12% | -12%
Cc1cc(NC(=O)CCCC(=O)N(CC(=O)NCCc2ccccc2)Cc2ccc(F)cc2)no1 | i | -8%
O=S(=O)(Nc1ccccn1)c1ccc(C(F)(F)F)cc1Cl | i[7.34 µM] | 0%[7.34 µM]
CNC(=O)C(=O)N/N=C/c1cccnc1 | -21% | -5%
Cc1ccc(-n2nc3c(=O)n(CC(=O)NCCc4ccccc4C)nc(C)c3c2C)cc1 | u | u
O=C(Nc1ccc(S(=O)(=O)N2CCOCC2)cc1)c1ccc(Br)o1 | -22% | -17%
COc1ccc(C(=O)NCC(c2ccc3c(c2)OCO3)N2CCOCC2)cc1OC (stereo not given) | -5% | -9%
COc1ccc(C(CNC(=O)C(CC(C)C)NS(=O)(=O)c2ccc(C)cc2)N2CCOCC2)cc1 (stereo not given) | -17% | 3%

The whole of this part, previewed entries included:
SMILES | Vaccinia mCherry | VACV Venus inh
CN1C(C(=O)NCCc2cccs2)CC2Cn3c(nc4cc(Cl)c(Cl)cc43)C21 (stereo not given) | -15% | -22%
COc1ccc(/C=N/NC(=O)c2cccc(COCC(F)(F)C(F)F)c2)cc1 | u | -29%
COc1ccc(CCn2cnc(=O)c(C#N)c2C)cc1OC | -2% | -11%
Cc1ccc(C)c(N2CCN(C(=O)CCc3nc(-c4cccc(Br)c4)no3)CC2)c1 | i | -1%
O=C(CSC1=NCCN1)Nc1cccc(C(F)(F)F)c1 | i | -19%
CCCN(CC(=O)Nc1ccccc1C)C(=O)C1CC(=O)N(Cc2ccccc2)C1 (stereo not given) | -15% | -14%
COc1ccc(Cc2n[nH]c(=S)n2N)cc1OC | i | -8%
O=C(NCCc1ccccc1)c1cnc2ccccn2c1=O | i | -9%
CCNc1nc(N)nc(Oc2ccc(OCC(=O)OC)nn2)n1 | 0% | -11%
Cc1nn(-c2nc(-c3ccc(F)cc3)cc(C(F)(F)F)n2)c(C)c1Cl | -12% | -12%
Cc1cc(NC(=O)CCCC(=O)N(CC(=O)NCCc2ccccc2)Cc2ccc(F)cc2)no1 | i | -8%
O=S(=O)(Nc1ccccn1)c1ccc(C(F)(F)F)cc1Cl | i[7.34 µM] | 0%[7.34 µM]
CNC(=O)C(=O)N/N=C/c1cccnc1 | -21% | -5%
Cc1ccc(-n2nc3c(=O)n(CC(=O)NCCc4ccccc4C)nc(C)c3c2C)cc1 | u | u
O=C(Nc1ccc(S(=O)(=O)N2CCOCC2)cc1)c1ccc(Br)o1 | -22% | -17%
COc1ccc(C(=O)NCC(c2ccc3c(c2)OCO3)N2CCOCC2)cc1OC (stereo not given) | -5% | -9%
COc1ccc(C(CNC(=O)C(CC(C)C)NS(=O)(=O)c2ccc(C)cc2)N2CCOCC2)cc1 (stereo not given) | -17% | 3%
CCCc1nnc(NC(=O)CNc2ccc(F)cc2)s1 | x | -13%
Cc1ccc(CCNC(=O)c2ccc3c(c2)c(C)c(C)n3Cc2ccccc2)cc1 | -15% | -5%
O=C(C1CCCO1)N1CCN(Cc2c(O)ccc3ccccc23)CC1 (stereo not given) | -17% | -6%
CCOc1ccc(N(CC(=O)NC2CCCCC2)S(=O)(=O)c2c(C)noc2C)cc1 | 4% | -5%
Cc1cccc(C)c1NC(=O)C1c2ccccc2OCC(=O)N1Cc1cccnc1 (stereo not given) | 27% | 8%
COc1cccc(-c2ccc(NC(=O)C3CCCN(Cc4nccn4C)C3)cc2)c1 (stereo not given) | -20% | u
CN(Cc1nccn1C)C(=O)c1ccc(OC2CCN(CCc3ccccc3)CC2)cc1 | 0% | -20%
O=S(=O)(NC1CC1)c1ccc(S(=O)(=O)N(Cc2ccccn2)C2CCCC2)cc1 | -8% | -7%
CCCCCCNC(=O)CC(NS(=O)(=O)c1ccc(OC)cc1)C(C)C (stereo not given) | -26% | -16%
O=C(CNC(=O)c1ccco1)OCc1ccccc1Cl | i | 0%
CN(C)C(CNC(C(=O)Nc1ccc([N+](=O)[O-])cc1Br)c1ccccc1)c1ccccc1 (stereo not given) | -14% | -10%
O=C(Cc1cn2ccsc2n1)Nc1nc2c(s1)CN(Cc1ccccc1)CC2 | 8% | 7%
COc1ccc(OC)c(-n2c(O)c(C=Nc3c(C)n(C)n(-c4ccccc4)c3=O)c(=O)[nH]c2=S)c1 | i | -11%
COc1ccc(C)cc1N(CC(=O)N1CCc2ccccc2C1)S(C)(=O)=O | i | -9%
Cc1cc(C)cc(NC(=O)CN2C(=O)CN=C(c3ccccc3)c3cc(Cl)ccc32)c1 | -6% | -7%
CSc1nc2ncc(C(=O)O)c(N)n2n1 | i | 9%
CCOc1ccc(C(=O)OCC(=O)NCc2ccccc2)cc1OCC | -13% | -8%
CC(C)(C)OC(=O)N1Cc2ccccc2C[C@H]1C(=O)N1CCC[C@H]1C(=O)O | i | 10%
O=C(N/C(=C\c1cccs1)C(=O)N1CCCCCC1)c1ccccc1 | i | -8%
CC(C)(C)NC(=O)NC(=O)COc1ccc(Br)cc1Br | -21% | -25%
CC1CCCC(C)N1C(=O)COC(=O)c1cc(Br)ccc1Cl (stereo not given) | -20% | -8%
COc1ccc(/C=C2\SC(=O)N(CCC(=O)N3CCCCC3)C2=O)cc1OC | i | -21%
CCCNC(=O)NS(=O)(=O)c1ccc(Cl)cc1 | -18%&-13% | -6%&-5%
C[C@]12C(=O)N(c3cccc(Cl)c3)C(=O)N1[C@H]1c3ccccc3OC[C@@H]1[C@H]2c1ccccc1 | i | -16%
NC(=O)c1cc(-c2ccccc2)sc1NC(=O)CN1CCCCC1 | -26% | u
OC[C@@H]1CN(Cc2ccco2)C[C@H](n2cnc3c(NCc4ccncc4)ncnc32)O1 | 33%[activator] | -1%
CC(C(=O)c1c[nH]c(C(=O)N=CN(C)C)c1)c1ncc(C(F)(F)F)cc1Cl (stereo not given) | -24% | -8%
Cc1ncc([N+](=O)[O-])n1CC(=O)Nc1ccc(F)c(F)c1 | i | -14%
COc1ccc(OC)c(Nc2cc(C)nc3nc(C)nn23)c1 | -21% | -26%
Cc1ccc(C(=O)OCC(=O)Nc2cc(Cl)ccc2C#N)o1 | i | -2%
N/C(=N\OC(=O)COc1ccc(Br)cc1Cl)c1cccnc1 | -8% | -21%
COc1cccc(NC(=O)CN2C(=O)COc3ccc(S(=O)(=O)N4CCCCCC4)cc32)c1 | i | -14%
Cc1cc(C)c2c(CN3CCCC3)cc(=O)oc2c1 | -19% | -16%
CCn1cc(C(=O)NCc2ccc3c(c2)OCO3)c(=O)c2cc(F)c(N3CCN(C(=O)c4ccco4)CC3)cc21 | 11µM* | 13µM*
Cc1cc(C)c(NC(=O)COC(=O)c2ccc([N+](=O)[O-])s2)c(C)c1 | i | 0%
O=C(Cc1ccc(F)cc1)NC1CCCC1 | x | -30%
NC(=O)c1ccc(NC(=O)CSc2nnc(C3CCCCC3)n2N)cc1 | -13%[7.34 µM] | -16%[7.34 µM]
C=CCn1c(O)c(C(CC)=NCc2cc(OC)cc(OC)c2)c(=O)[nH]c1=O | u | u
OC1(c2cccs2)CN(c2ccccc2)C2=[N+]1CCCC2 (stereo not given) | -12% | -14%
Cc1ccc(NC(=S)N2CCN(S(=O)(=O)c3ccccc3)CC2)cc1 | -7% | -14%
C=CCSC1=C(C#N)C(c2cccc(OC)c2)CC(=O)N1 (stereo not given) | x | -4%
COC(=O)c1ccc(OCC2c3cc(OC)c(OC)cc3CCN2C(=O)c2ccccc2C)cc1 (stereo not given) | -10% | -11%
N#CCCN(C(=O)Nc1ccccc1)C1CCCCC1 | i | -12%

(continued)
SMILES | Vaccinia mCherry | VACV Venus inh
COc1cc2c(cc1OC)C(C1C(=O)CC(C)(C)CC1=O)N(C(=O)CCl)CC2 (stereo not given) | -2% | x
Cc1cccc(OCCOCCN2CCNCC2)c1C | -15% | -11%
COc1cccc(N2CCN(C(=O)c3cccc(NC(=O)C4=C(C)OCCS4)c3)CC2)c1 | -12% | -18%
O=C(CCCN1C(=O)C2C3C=CC(C3)C2C1=O)N1CCN(c2ccccc2)CC1 (stereo not given) | -13% | -8%
COc1ccc(CC(=O)NC(c2ccccc2)c2ccc(C)cc2)c(OC)c1 (stereo not given) | -17% | -13%
O=C1/C(=C/c2ccc(O)cc2)SC(=S)N1CC1CCCO1 (stereo not given) | u | 85%[activator]
O=C(Nc1ccc2nc(-c3ccco3)c(-c3ccco3)nc2c1)NC1CC1 | -23% | -14%
c1cncc(CNc2ncnc3sccc23)c1 | 0% | -3%
O=C(Nn1cnnc1)c1cc([N+](=O)[O-])cc([N+](=O)[O-])c1 | -13% | -8%
CCc1nc(-c2cc(S(=O)(=O)N3CCN(c4ccc(F)cc4)CC3)ccc2OC)no1 | -15% | -7%
CCCNC(=O)c1ccc2snnc2c1 | x | 0%
O=C(CCC1N=C2c3ccccc3N=C(SCc3ccccc3Cl)N2C1=O)N1CCN(c2ccccc2)CC1 (stereo not given) | -17% | -18%
Cc1c(-c2ccc(Cl)cc2)c(=O)oc2c(CN3CCN(C)CC3)c(O)ccc12 | -16% | -22%
COc1ccc(NC(=O)CSc2nc3c(c(=O)[nH]2)CCC3)cc1 | -14% | 1%
O=C(NCc1cccnc1)C(=O)NCC1OCCCN1S(=O)(=O)c1ccc(F)cc1 (stereo not given) | -1% | -14%
CC(=O)Nc1ccc(NC(=O)Nc2ccc3c(c2)N(C)C(=O)CS3)cc1 | i | -2%
CCc1cc2c(=O)c(-c3nc4ccccc4n3C)c(C)oc2c(CN2CCOCC2)c1O | i | -4%
CCOC(=O)c1c(SC)n(-c2ccccc2)c(=S)n(-c2ccccc2)c1=O | -3% | -2%
O=C(CSc1ccccc1F)Nc1ccc2c(c1)OCO2 | i | -9%
CCCCCCCC1=NN(c2ccc(S(=O)(=O)O)cc2)C(=O)C1N=O (stereo not given) | -18% | -11%
C=CCN(C(=O)CCC(=O)Nc1cc(C)on1)C(C(=O)NC1CCCC1)c1ccc(OC)cc1OC (stereo not given) | -9% | 5%
Cc1ccc(SCn2nnc3ccccc3c2=O)c(C)c1 | -1% | -14%
CCOc1cc(/C=C/c2cc(C(=O)O)c3ccccc3n2)ccc1O | i | -12%
O=C(Nc1nccs1)[C@@H]1CC=C[C@@H]2CCN(C3CC3)C(=O)[C@@H]21 | i | -8%
Cn1cc(CCC(=O)NCc2ccc(Cl)cc2)c2ccccc21 | -16% | -16%&-13%
CCCCNC(=O)Nc1c(C(=O)OCC)[nH]c2ccccc12 | x | -34%
CCOC(=O)N1CCC(NC(=O)c2cc(S(=O)(=O)N(CC)CC)ccc2F)CC1 | i | -10%
CCN(CC)c1ccc(/C=N/NC(=O)Cc2cccs2)c(O)c1 | 6.3µM* | u
O=C(NS(=O)(=O)c1ccccc1)c1ccccc1O | -12% | -8%
COc1cccc(NC(=O)c2cc([N+](=O)[O-])ccc2NCc2cccnc2)c1 | -9% | -14%
COc1ccccc1C(=O)NNC(=O)c1ccccc1F | i | 3%
O=C(COc1cc2oc(=O)cc(-c3ccccc3)c2cc1Cl)NCC1CCC(C(=O)O)CC1 (stereo not given) | i | -4%
COc1cc(C(=O)Nc2ccc3c(c2)OCCO3)ccc1OC(C)C | x | -21%
COc1cc(/C=C/C(=O)NCc2cccnc2)cc(OC)c1OC | -21% | -16%
Cc1cc([N+](=O)[O-])nn1CC(=O)NCCCn1ccnc1 | -2% | -16%
O=C(Nc1ccccc1)c1cnc[nH]1 | -3% | -2%
Cc1ccc(-c2nc(C(=O)Nc3cccc(C#N)c3)c3n2CCCCC3)cc1 | -24% | -18%
Cn1c2ccccc2c2cnn(CC(=O)O)c(=O)c21 | -13% | -9%
CSc1cccc(NC(=S)N2CCC(N(C)C3CCCCC3C)CC2)c1 (stereo not given) | -12% | -5%
COc1ccc(N(CC(=O)Nc2cccc(Cl)c2)S(=O)(=O)c2c(C)[nH]c(=O)[nH]c2=O)cc1 | -9% | -1%
COc1ccc(CCNC(=O)Cc2cccs2)cc1 | -11% | -11%
COc1ccc(CC(=O)N(Cc2cc3cc(OC)ccc3[nH]c2=O)C(C)C)cc1 | x | -29%
NNc1nnc(-c2ccccc2)c(-c2ccccc2)n1 | -9% | -19%
Cc1n[nH]c(=O)c2ccccc12 | i | -7%
CC(C)C(NC(=O)C1CCCCC1)C(=O)Nc1ccncc1 (stereo not given) | x | -7%
Cc1ccc(/C=C2/SC(=S)N(CCC(=O)N3CCN(C)CC3)C2=O)cc1 | -9% | -6%
CC(NC(=O)CSc1nc2ccccc2c(=O)n1CCCO)c1ccccc1 (stereo not given) | -6% | -12%
